Bioassay records: PubChem, ICCB-Longwood Screening Facility, Harvard Medical School
S aureus helic: blocks Staphylococcus aureus DNA helicase. purified S. aureus helicase, fluorescence unwinding assay; about half of the hits fall short of the stated cut. inhibition, %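 (tested at about 80 µM)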. 0.05% of 120,000 active;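 active = both duplicates at 50% or more, or one of them with a favoured structure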;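 note: 0% = mean of negative control wells and 100% = mean of positive control wells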
MgrA DNA FP: alters Staphylococcus aureus MgrA binding to DNA | fluorescence polarization | inhibition, %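 (about 10 µg/mL by stock and volumes)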 | 0.13% of 84,000 active | AID 602314;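 active = above 50% in either of two replicates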;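 note: 0% = protein plus DNA without compound and 100% = DNA alone without protein; higher means less MgrA bound to DNA so lower polarization; one replicate is shown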
* = called active by the depositor. Some of the compounds tested (hit frequency here may not be typical).

O=C(NCCCN1CCOCC1)C1CCC(=O)N1CCc1ccccc1 (stereo not given) was read as S aureus helic -3.
Screening O=C(CN1C(=O)c2ccccc2S1(=O)=O)N1CCC2(CC1)OCCO2 returned S aureus helic 11.
For COc1cccc(-n2cc(C(=O)N3CCCCCC3)c3ccccc3c2=O)c1 the results were S aureus helic 7 and MgrA DNA FP 3.2.
Screening Cc1c(NC(=O)CSc2nnc(-c3cnccn3)s2)c(=O)n(-c2ccccc2)n1C returned S aureus helic -4 and MgrA DNA FP -1.3.
O=C1CN(CCc2ccccc2)CC(=O)N1CCc1ccccc1 was read as S aureus helic 9.
Screening CC1CC(=O)N(CC(=O)Nc2ccc3c(c2)OCCO3)c2ccccc2S1 (stereo not given) returned S aureus helic 4.
Screening C=CCOc1nc(-c2cccs2)cc(-c2ccco2)c1C#N returned S aureus helic -18.
`CCOC(=O)c1cc2c(=O)n3ccccc3nc2n(CCOC)c1=NC(=O)c1ccccc1` gave S aureus helic -9.
Screening C=C(C)Cn1cnc2ccccc21 returned S aureus helic 2 and MgrA DNA FP -1.3.
Cc1ccc(-c2csc(C/C(N)=N/O)n2)cc1 was read as S aureus helic 15.
Screening O=C1C=C(c2ccccc2)OC2(CCCC2)O1 returned S aureus helic 0.
`N=C(N)c1cc(C(F)(F)F)cc(C(F)(F)F)c1` gave MgrA DNA FP 3.0.
For CC1(C)CN=c2s/c(=C\c3ccc(Cl)cc3)c(=O)n2C1 the results were S aureus helic -1.
CCC(=O)c1ccc(CCCCCC(=O)O)s1 was read as S aureus helic 6 and MgrA DNA FP 7.3.
`C=CCNc1nc(N)c(C(=O)c2ccc(Cl)s2)s1` gave S aureus helic 5 and MgrA DNA FP -3.4.
For O=C(NC(=S)Nc1ccc(N2CCOCC2)cc1)c1ccccc1 the results were S aureus helic 16 and MgrA DNA FP 1.4.
`Cc1c(Cl)c([N+](=O)[O-])nn1CC(=O)Nc1cc(Oc2ccccc2)cc(Oc2cccnc2)c1` gave MgrA DNA FP -0.4.
`Nn1cnn(CC(=O)Nc2nccs2)c1=S` gave S aureus helic 18 and MgrA DNA FP 15.
Screening O=c1c2c(nc3cc(-c4ccccc4)[nH]n13)CSC2 returned MgrA DNA FP -1.0.
`CCC1CCCCN1C(=S)NCc1ccccc1` (stereo not given) gave S aureus helic 3 and MgrA DNA FP -2.1.
`CCOC(=O)C1=C(C)NC(=O)CC1c1ccncc1` (stereo not given) gave S aureus helic 8 and MgrA DNA FP -0.4.
O=C(Nc1cccc(-c2nc3ccccc3o2)c1)c1cccc(OCc2ccccc2)c1 was read as S aureus helic 7 and MgrA DNA FP 3.2.
CC1CCCCN1S(=O)(=O)c1cnc[nH]1 (stereo not given) was read as S aureus helic 3.
O=C1OC(Nc2ccccc2C(F)(F)F)c2ccccc21 (stereo not given) was read as S aureus helic 7 and MgrA DNA FP -0.8.
For NC(=O)CC1Sc2ccccc2NC1=O (stereo not given) the results were S aureus helic 8 and MgrA DNA FP -4.9.
Screening Cc1cc(OCc2cn3cccnc3n2)ccc1Cl returned S aureus helic 23.
Screening COc1ccc(-c2cc(C(F)(F)F)n3nc(C(=O)N4CCOCC4)c(Cl)c3n2)cc1 returned MgrA DNA FP -0.9.
Screening COc1ccc(C(=O)COC2=C(C#N)C3(CCCC3)C(C#N)C(=S)N2)cc1OC (stereo not given) returned S aureus helic -3 and MgrA DNA FP -1.5.
Screening O=C(COc1ccc(S(=O)(=O)Nc2ccccc2)cc1)N1CCOCC1 returned S aureus helic 6 and MgrA DNA FP 1.4.
For O=C(c1ccc(S(=O)(=O)N2CCCCC2)cc1)N(c1ccccn1)C1CCCCC1 the results were S aureus helic -9.
For CCOC(=O)C1=C(C)NN=C(C)C1 the results were S aureus helic 2 and MgrA DNA FP 8.0.
For CC(Sc1cccc[n+]1[O-])C(=O)NCC1CCCCC1 (stereo not given) the results were S aureus helic -9.
O=C(Nc1nnc(SCC(=O)N2CCc3ccccc32)s1)c1ccccc1 was read as S aureus helic -23.
`O=C(NCc1cccn1Cc1ccccc1)NC1CCCC1` gave S aureus helic 6.
COc1ccc(-c2csc(NC(=O)c3cccs3)n2)cc1 was read as S aureus helic -15.
`CN(C)c1ccc(/C=C2\C(=O)N(c3ccccc3)N=C2C(=O)O)cc1` gave MgrA DNA FP 6.3.
Cc1cc2cc(CNC(=O)/C=C\c3ccc4c(c3)OCO4)ccc2n1C was read as S aureus helic 16 and MgrA DNA FP -0.9.
For COc1cc2c(cc1OC)C(C)N(C(=O)c1ccc(Cl)cc1Cl)CC2 (stereo not given) the results were MgrA DNA FP 1.7.
For CCCn1cc(SCC(=O)Nc2nccs2)c2ccccc21 the results were S aureus helic -13.
Screening O=C(O)CCCNc1nc(Cl)nc(N2CCCCC2)n1 returned S aureus helic 11.
`O=C(NCCOc1ccccc1)c1ccccc1` gave S aureus helic -4 and MgrA DNA FP 3.3.
`CN1C(=O)/C(=C/c2ccc(Cl)cc2)N(C)C1=S` gave S aureus helic 6 and MgrA DNA FP 2.0.
`N#C/C(=C\c1ccccc1Cl)c1nc(-c2cc3cc(Br)ccc3oc2=O)cs1` gave MgrA DNA FP 0.1.
COc1ccc(C(CC#N)C2CCOC(C)(C)C2)cc1 (stereo not given) was read as S aureus helic -17 and MgrA DNA FP 0.8.
For Oc1ccc(I)nc1CCc1ccccc1 the results were S aureus helic -3 and MgrA DNA FP 1.1.
Screening CC(C)CN(CC(C)C)c1nnc(NC(=O)c2csc3c2CCCC3)s1 returned S aureus helic 15 and MgrA DNA FP -0.6.
Screening Brc1ccc2ncnc(NCC3CCCO3)c2c1 (stereo not given) returned S aureus helic 8 and MgrA DNA FP -2.4.
For CS(=O)(=O)c1ccsc1 the results were MgrA DNA FP -1.6.
For O=c1ccc(-c2ccc(S(=O)(=O)N(CCN3CCOCC3)Cc3ccco3)s2)n[nH]1 the results were S aureus helic 4.
Screening CC(C)(C)OC(=O)NCc1n[nH]c(=S)n1-c1ccccc1 returned MgrA DNA FP 0.2.
CCN(CC)C(C)C(=O)Nc1c(C)cccc1C (stereo not given) was read as S aureus helic 10 and MgrA DNA FP -0.2.
`O=S(=O)(c1cc(Cl)ccc1Cl)N1CCCC1` gave S aureus helic 1 and MgrA DNA FP -0.6.
`COc1cccc(CNS(=O)(=O)c2ccc3c(c2)oc(=O)n3C)c1` gave S aureus helic -11 and MgrA DNA FP 3.0.
For O=c1[nH][nH]c(=S)n1C1CC1 the results were S aureus helic 8 and MgrA DNA FP 2.5.
For Brc1ccc(-c2csc(Nc3ccncc3)n2)cc1 the results were MgrA DNA FP 0.6.
O=C1c2cccnc2C(=O)N1c1nccs1 was read as S aureus helic -4.
`CSc1nn(-c2ccccc2)cc1C#N` gave MgrA DNA FP 3.4.
N#Cc1ccc(N2CCCN(S(=O)(=O)c3cccs3)CC2)nc1 was read as MgrA DNA FP -2.7.
`Cc1ccc2oc(=O)c3cnn(CC(=O)NCCN4CCN(Cc5ccccc5)CC4)c3c2c1` gave S aureus helic 5 and MgrA DNA FP -1.0.
`CC1=NN(c2ccccc2)C(=O)/C1=C/c1ccc(O)cc1` gave MgrA DNA FP -1.5.
`CNC(=O)c1c(NC(=O)C2=COCCO2)sc(C)c1C` gave S aureus helic 12.
Cc1cn2c(-c3ccccc3F)nc(=S)nc2s1 was read as S aureus helic 12 and MgrA DNA FP 0.0.
For O=C1c2ccccc2C(F)(F)c2c(F)cccc21 the results were S aureus helic 7.
For CCOc1ccccc1C(=O)NCc1cn2ccsc2n1 the results were S aureus helic 0.
`CCCCc1ccc(NC(=O)CSCC(N)=O)cc1` gave S aureus helic 10 and MgrA DNA FP -1.9.
CN(C(=O)c1cc2cc(Br)ccc2oc1=O)C1CCCCC1 was read as S aureus helic 13.
`CCCSc1nnc2c(n1)OC(c1cc(Br)c(O)c(OC)c1)Nc1ccccc1-2` (stereo not given) gave MgrA DNA FP 2.1.
For O=C1Cn2c(nc3ccccc32)N1c1cccc(C(F)(F)F)c1 the results were S aureus helic 26.
COc1cc(N)c(C(=O)c2nccc3cc(OC)c(OC)cc23)cc1OC was read as S aureus helic 7 and MgrA DNA FP 0.0.
`O=C(CSCc1ccc2nsnc2c1)Nc1ccccc1` gave S aureus helic 13 and MgrA DNA FP -1.7.
Screening COc1ccc(OCC(=O)N2CCc3ccccc32)cc1 returned S aureus helic -24.
`O=C(Nn1cnnc1)c1ccccc1CCc1ccccc1` gave S aureus helic -5 and MgrA DNA FP 1.0.

3 consecutive records out of the list so far:
`O=C(CSCc1ccc2nsnc2c1)Nc1ccccc1` gave S aureus helic 13 and MgrA DNA FP -1.7.
Screening COc1ccc(OCC(=O)N2CCc3ccccc32)cc1 returned S aureus helic -24.
`O=C(Nn1cnnc1)c1ccccc1CCc1ccccc1` gave S aureus helic -5 and MgrA DNA FP 1.0.

6 records drawn at random from the list so far, as already listed:
`CNC(=O)c1c(NC(=O)C2=COCCO2)sc(C)c1C` gave S aureus helic 12.
Screening O=c1c2c(nc3cc(-c4ccccc4)[nH]n13)CSC2 returned MgrA DNA FP -1.0.
O=C1c2cccnc2C(=O)N1c1nccs1 was read as S aureus helic -4.
For Oc1ccc(I)nc1CCc1ccccc1 the results were S aureus helic -3 and MgrA DNA FP 1.1.
Cc1ccc(-c2csc(C/C(N)=N/O)n2)cc1 was read as S aureus helic 15.
`COc1cccc(CNS(=O)(=O)c2ccc3c(c2)oc(=O)n3C)c1` gave S aureus helic -11 and MgrA DNA FP 3.0.

The list continues:
`CCCOC(=O)C1=C(C)NC2=C(C(=O)C(C(=O)OC)C(C)C2)C1c1ccc(C)s1` (stereo not given) gave S aureus helic 12.
CCC(=O)N1CCN(c2nc3c(C)c(Cl)ccc3s2)CC1 was read as S aureus helic 2.
Screening CC(=O)Nc1ccc(NC(=O)C2CCN(c3ccc(C(F)(F)F)cn3)CC2)cc1 returned S aureus helic 12.
For COc1ccc(N2CCN(CCNC(=O)c3ccc4nc5ccccc5c(=O)n4c3)CC2)cc1 the results were S aureus helic -30.
OC1(c2ccc(Cl)cc2)CCN(Cc2cn[nH]c2-c2ccccc2)CC1 was read as MgrA DNA FP -0.8.
CNC(=S)Nc1ccc(Cl)cc1 was read as S aureus helic 3 and MgrA DNA FP -0.4.
Screening CCOC(=O)Cc1cc(=O)n(-c2nc3ccccc3s2)[nH]1 returned S aureus helic 12 and MgrA DNA FP 4.3.
For O=C(c1ccc(-c2ccc(F)cc2)o1)N1CCCN(S(=O)(=O)c2ccc(F)cc2)CC1 the results were S aureus helic -3.
Screening CCOC(=O)c1cnc2scnn2c1=O returned S aureus helic 8.
Screening CCCc1cc2c(=O)c(-c3ccccn3)c(C)oc2cc1O returned S aureus helic -9.
Cc1cc(C)cc(NC(=O)CC(NCc2cccnc2)C(=O)O)c1 (stereo not given) was read as S aureus helic -1 and MgrA DNA FP -0.2.
Screening c1ccc(CSc2nccc(-c3ccc4c(c3)CCO4)n2)cc1 returned MgrA DNA FP -1.2.
For CCCCCCc1c(O)nc(SCC(=O)O)[nH]c1=O the results were S aureus helic -11.
For CC(=O)N1CCN(C2c3cccc4cccc(c34)C2NS(=O)(=O)c2ccc(Cl)cc2)CC1 (stereo not given) the results were S aureus helic -15 and MgrA DNA FP -0.7.
COc1cc2nc(COC(=O)c3ccco3)n(CC#N)c(=O)c2cc1OC was read as S aureus helic 5.
CC(=O)ON(Cc1c(C)no[n+]1[O-])Cc1c(C)no[n+]1[O-] was read as S aureus helic 16 and MgrA DNA FP 2.8.
Screening O=C(Oc1cccc(OC(=O)c2ccccc2F)c1)c1ccccc1F returned S aureus helic -11 and MgrA DNA FP 0.9.
For COCCCn1cc(-c2c(-c3cc(=O)oc4cc(OC)ccc34)oc3cc(OC)ccc23)cc(C#N)c1=O the results were S aureus helic -53.
Screening CCN(CC)CCC(=O)N1N=C(c2ccc(C)cc2)CC1c1ccc(OC)cc1 (stereo not given) returned S aureus helic -16 and MgrA DNA FP -3.0.
`COc1cccc2c1C(=O)c1c(O)c3c(c(O)c1C2=O)C[C@@](O)(C(C)=O)C[C@@H]3OC1CC(N)C(O)C(C)O1` (stereo not given in full) gave MgrA DNA FP active.
Screening CCN(CC)/C(=C\C#N)c1ccc(F)cc1 returned S aureus helic -4.
For Cc1c(C(=O)N(C)C)sc2[nH]c(=O)n(-c3ccc(F)cc3)c(=O)c12 the results were S aureus helic 1.
Screening CCc1ccccc1NC(=O)c1cc(C)on1 returned S aureus helic 36.
Screening CSc1ccc(S(=O)(=O)Nc2ccccc2C(=O)N2CCOCC2)cc1 returned S aureus helic 8 and MgrA DNA FP 2.6.
COC(=O)c1oc2c(c1C)-c1nc3ccccc3nc1C(C)(C)C2 was read as S aureus helic 2 and MgrA DNA FP 5.0.
Cc1ccc(-n2c(SCC(=O)c3ccccc3)nc3[nH]ncc3c2=O)cc1Cl was read as S aureus helic -8.
`CNC(=O)c1cc(S(=O)(=O)N2CCc3ccccc32)ccc1C` gave S aureus helic 5 and MgrA DNA FP -3.3.
CN(C=O)CP(=O)(O)CN1CCCCC1 was read as S aureus helic 1 and MgrA DNA FP -0.6.
For CC(C)(C)c1ccc(NC(=O)N2CCOCC2)cc1 the results were MgrA DNA FP 1.4.
Screening CC1(C)CC(=O)C2=C(C1)OC(N)=C(C#N)C2c1ccc(C2C(C#N)=C(N)OC3=C2C(=O)CC(C)(C)C3)cc1 (stereo not given) returned MgrA DNA FP 0.5.
For Oc1c(CN2CCOCC2)cc(-c2ccccc2)cc1CN1CCOCC1 the results were S aureus helic 17.
Screening O=C(O)CC(CC(=O)Nc1ccc(-n2ccc(C(F)(F)F)n2)cc1)c1ccccc1 (stereo not given) returned MgrA DNA FP -0.3.
